UUG fidelity – modulators of yeast start codon fidelity, primary screen, whole organism, S. cerevisiae, single point, plate reader; S. cerevisiae UUG-firefly luciferase reporter, luminescence/redox ratio; activity score, % at 18.7 µM; 350,000 tested, 0.13% active; AID 602363, 2012;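 active means replicate mean at a twofold rise or more, about +100% in these data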;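 further: firefly luciferase made from a UUG start codon reports start codon fidelity; reporter light over untreated wells divided by growth signal over untreated wells; some hits fall short of that in this replicate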
HIV Env fusion – inhibitors of HIV-1 Env-driven cell-cell fusion, primary screen, HeLa-JRFL effector, CEM21 target cells, luciferase; inhibition, % at 12.3 µM; 360,000 tested, 1.1% active;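 active means mean replicate inhibition score of at least 50 and every replicate individually at or above 50; inconclusive means only one of the two criteria met; inactive means mean below 50 and not all replicates reaching 50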;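 further: 0% = plate neutral controls and 100% = maraviroc near 300 nM; one replicate is shown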
Rce1 inh – yeast Rce1p protease inhibitors, primary screen, biochemical, fluorescence, cell-free homogeneous; CAAX prenyl protease 2 (Saccharomyces cerevisiae (strain ATCC 204508 / S288c)), Q03530; yeast membranes, quenched prenylated peptide cleavage fluorescence; calls only; 290,000 tested, 0.27% active;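 active means fall in fluorescence gain of 50% or more versus controls, with final raw signal at or below 3038400; inconclusive means same 50% fall but final raw signal above 3038400; inactive means fall in fluorescence gain under 50%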;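 further: plate controls were neutral control wells for no effect and wells lacking membranes for full effect; tested at 10 µM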
Target sequence (Q03530 whole entry, looked up): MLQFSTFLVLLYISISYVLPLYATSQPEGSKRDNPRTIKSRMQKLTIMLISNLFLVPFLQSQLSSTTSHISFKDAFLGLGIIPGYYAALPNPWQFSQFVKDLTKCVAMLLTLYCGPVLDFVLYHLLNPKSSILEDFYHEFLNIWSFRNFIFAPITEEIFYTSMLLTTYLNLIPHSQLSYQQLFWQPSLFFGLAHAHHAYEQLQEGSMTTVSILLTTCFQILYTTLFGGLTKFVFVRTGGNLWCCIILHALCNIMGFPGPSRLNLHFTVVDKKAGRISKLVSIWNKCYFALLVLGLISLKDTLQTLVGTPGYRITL
PABP polyA inh – PABP poly(A) RNA binding inhibitors, primary screen, biochemical, fluorescence polarization, uHTS; inhibition, % at 35 µM; 290,000 tested, 1% active; Polyadenylate-binding protein 1 (Homo sapiens), P11940; AID 2014, 2009;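 active means 50% or more with normal probe brightness, or confirmed in later tests; inconclusive means above 50% with abnormal brightness, or retests that disagree; inactive means below 50% or failed in later tests; about a fifth of its hits are not listed in these tables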;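 further: calls also rest on retests at 20 µM and on dose response follow-up; controls were probe without protein and protein plus probe with vehicle; some compounds called inactive have numbers as strong as hits; many hits fall short of the cut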
CSC inhib – cancer stem cell viability inhibitors, primary screen, luminescence; AID 2717, 2010; cancer stem cell-like cells viability; inhibition, % at 7.5 µM; 300,000 tested, 1.1% active;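 active means mean at 75% or more and at least half the replicates too; inconclusive means mean and replicates disagree; tested in HMLE shEcad cells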;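 further: 0% = median of negative and 100% = median of positive control wells; the first replicate is given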
MT1-MMP act inh – blockers of MT1-MMP proenzyme processing, primary screen, HT1080 RFP-PRO-GFP cells, GFP/RFP fluorescence; GFP/RFP ratio fluorescence, overnight; percent of plate control window, DMSO zero; GFP/RFP ratio change, % at 20 µM; Matrix metalloproteinase-14 (Homo sapiens), P50281; 360,000 tested, 0.061% active;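 active means GFP/RFP ratio change of at least 30% with cell ATP level not reduced by more than half and red fluorescence within 50% of control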; further: strong numbers were not always called active
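system = RFP-PRO-GFP reporter HT1080 cells | dosing = 20 µM single dose, 1% DMSO | timing = overnight cell settling, then overnight compound exposure, 37 °C, 5% CO2 | read-out basis = GFP/RFP fluorescence ratio | controls = DMSO and RFP-L50D-GFP cell wells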
eIF4H inh – human eIF4H binding inhibitors, primary screen, translation initiation inhibitor project, biochemical, uHTS, fluorescence polarization; Eukaryotic translation initiation factor 4H (Homo sapiens), Q15056; eIF4H fluorescence polarization binding assay; inhibition, % at 35 µM; 290,000 tested, 0.94% active; AID 2012, 2009;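 active means 50% or more with normal probe brightness, or confirmed in later tests; inconclusive means above 50% with abnormal brightness, or retests that disagree; inactive means below 50% or failed in later tests; about a fifth of its hits are not listed in these tables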;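 further: calls also rest on retests at 20 µM and on dose response follow-up; 0% = protein and probe with vehicle and 100% = probe without protein; strong numbers were not always called active; many hits fall short of the cut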
eIF4H inh retest – recorded beside eIF4H inh, whose call it bears; inhibition, %; compound at 20 µM; confirmation average;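 mean of two retest wells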
PABP polyA inh retest – second read-out of PABP polyA inh, no call of its own (marks repeat the call); inhibition, %; compound at 20 µM; confirmation repeats;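 mean of two retest wells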
MT1-MMP act inh RFP – also measured in MT1-MMP act inh; calls as there; RFP signal change, %; measured here: RFP expression control read;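 0 = vehicle wells; hits needed this value within 50% of zero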
Active calls of the source: *; i = inactive; ? = inconclusive; nt = not tested or not shown; & = joins results of further samples. Rows are unselected; overall some 3% were active at least once.

SMILES	UUG fidelity	HIV Env fusion	Rce1 inh	PABP polyA inh	CSC inhib	MT1-MMP act inh	MT1-MMP act inh RFP	eIF4H inh	others
Cn1c(CCN2CCOCC2)nc2cc(NC(=O)COc3ccc(Cl)cc3)ccc21	-19	9	i	1	nt	2	-3	1
COCCN(CC(=O)Nc1cccc(C)c1C)C(=O)/C=C/c1ccc2c(c1)OCCO2	-5	9	nt	nt	nt	1	4	nt
C/C=C/C=C(/NC(=O)c1ccccc1)C(=O)Nc1ccccc1	-14	3	i	-4	-11	0	3	-1
Cc1cc(C(=O)COC(=O)c2cccn2C)c(C)n1Cc1ccco1	-70	-27	i	?	5	-1	-5	22
C#CCOCCOCCOCCNc1nc(N2CCN(C(=O)C([C@@H](C)CC)n3cc(C(N)Cc4ccc(O)cc4)nn3)CC2)nc(N2CCN(C(=O)[C@H](CCC(=O)O)n3cc(C(N)[C@H](C)CC)nn3)CC2)n1 (stereo partly drawn)	27	0	i	5	-13	-1	3	9
CN(c1ccc(OCC(=O)OCC(=O)Nc2cccc([N+](=O)[O-])c2)cc1)S(=O)(=O)c1ccc(F)cc1	-8	3	i	-5	-6	-2	5	6
CCOC(=O)C1=C(C)NC(C)=C(C(=O)OCC)C1C(=O)OCC(=O)N1CCc2ccccc21	3	-32	i	-4	-7	-1	-2	5
Fc1cccc(NC(=S)NCCc2ccccc2)c1	-26	13	nt	-7	3	5	-8	-14
Cc1nc2ccc(S(=O)(=O)NCC(=O)N3CCCCC3)cc2s1	2	nt	i	5	-8	9	3	0
O=C(Nc1cccc(Cl)c1)Nc1cc(S(=O)(=O)N2CCCCC2)ccc1Cl	nt	44	i	4	87*	-17	-38	-8
CCCCCCC1C(C#N)=C(N)OC2=C1C(=O)CCC2 (stereo not drawn)	0	-3	i	-5	3	-1	3	4
CC#CCN(CC#CC)S(=O)(=O)c1ccc(-n2cnnn2)c(OC)c1	-7	-1	i	-4	-10	5	1	-13
COc1ccc(OC)c(NC(=O)Cn2c(C)nc3ccccc3c2=O)c1	nt	3	i	3	0	0	1	3
O=C(NC(=O)c1c(F)cccc1F)O/N=C1\CCCc2occc21	-22	17	i	4	-2	-1	6	0
CCOC(=O)NC(=S)Nc1cccc(C)n1	-2	-21	nt	nt	nt	4	4	nt
Cc1c(NC(=O)Nc2cccs2)cccc1[N+](=O)[O-]	nt	10	i	7	-5	-2	-3	18
Cn1c(=O)[nH]c(=O)c2c1nc(SCC(O)CCl)n2Cc1ccccc1 (stereo not drawn)	-8	6	i	6	-11	-2	-2	-4
Cc1ccc(S(=O)(=O)N2CCOCC2)cc1NC(=O)CNCc1ccccc1Cl	-3	14	nt	nt	nt	8	-3	nt
CCc1ccc(Nc2ncnc3nc[nH]c23)cc1	-65	-72	i	5	3	1	0	-4
CCCc1ncc(C[n+]2ccccc2C)c(N)n1	-17	3	nt	nt	-7	-2	2	nt
COc1cc(C(C)=O)ccc1Oc1ncnc2c1cnn2-c1cccc(Cl)c1	-16	nt	i	0	-1	0	-8	-4
Cc1ccc2cccc(S(=O)(=O)n3nc(C)cc3C)c2n1	-13	1	i	-6	-12	-3	1	-7
O=C(NCCN1CCOCC1)c1ccc(CS(=O)(=O)c2ccc(Br)cc2)o1	-15	-2	i	nt	nt	0	2	nt
CC1(C)Cc2cccc(OCC(=O)OCC(=O)NCc3ccccc3)c2O1	-1	15	i	-1	-9	-1	3	2
NCCCC[C@@H]1NC(=O)[C@H](CCC(=O)O)NC(=O)c2cc([N+](=O)[O-])cc(I)c2NCC[C@@H](C(N)=O)NC1=O	-7	nt	i	-2	-13	2	0	13
Cc1ccccc1N(C(=O)c1ccccn1)C(C(=O)NCc1ccccc1)c1cccnc1 (stereo not drawn)	-4	-1	i	0	-19	-1	2	1
CC(C)NC(=O)CC(=O)NN=C1CCCCC1	nt	7	i	2	-13	2	2	-4
COc1ccc(OC2C(=O)N(c3cc(C)ccc3C)C2c2ccc(OC)c(OC)c2)cc1 (stereo not drawn)	-11	-10	i	-2	4	-6	-3	-5
CCOC(=O)CCCCCC(=O)Nc1ccc2c(c1)C(=O)N([C@H](C)CO)C[C@@H](C)[C@@H](CN(C)C(=O)CCC(F)(F)F)OCCCC[C@H](C)O2	7	-22	nt	nt	nt	-1	7	nt
O=C(NCc1ccc(F)cc1)C(c1ccc(Cl)cc1)N(C(=O)c1csnn1)C1CC1 (stereo not drawn)	-3	25	i	-9	nt	-4	-3	-14
COc1cc(NC(=O)COC(=O)/C=C/c2ccccc2Cl)cc(OC)c1	nt	-11	i	2	-8	3	3	2
CCN(CC(=O)Nc1ccc2c(c1)OCCO2)Cc1cc(=O)oc2cc(C)c(C)cc12	nt	23	i	4	-5	10	0	-5
CC1=C(C#N)C(c2cccnc2)C2=C(N1)c1ccccc1C2=O (stereo not drawn)	9	6	i	-11	3	-4	0	-8
COc1ccc(C(=O)Nc2ccc(S(=O)(=O)N3CCCCC3C)cc2)c(OC)c1OC (stereo not drawn)	-5	?	i	13	nt	-1	-8	10
COC(=O)c1c(C)nc2c(c(SC)nn2-c2ccccc2)c1N	-26	nt	i	1	6	0	-4	-2
COc1ccc(C(NC(=O)c2c(F)c(F)c(F)c(F)c2F)c2ccccc2)cc1 (stereo not drawn)	11	2	i	-4	48	-9	-17	-7
COc1ccc(C(=O)OCC(=O)Nc2ccc([N+](=O)[O-])cc2OC)c(O)c1	nt	13	i	7	3	1	-4	-4
O=C(NCc1cccnc1)c1ccc(CN2CCc3ccccc3C2)cc1	-6	nt	i	-2	-12	-1	-3	1
COc1cc(/C=N/n2c(C3CCCCC3)n[nH]c2=S)cc(Br)c1O	-11	23	i	6	-11	-4	-8	0
O=C(Nc1ccc(F)cc1F)c1ccc(COc2c(F)c(F)cc(F)c2F)o1	-15	7	i	-2	-19	1	2	4
CN(C)/C=C/C=C1C(=O)CCCC1=O	0	-3	i	0	5	1	2	43
CCOc1ccc(/C(O)=C2/C(=O)C(=O)N(Cc3cccnc3)C2c2ccc(N(C)C)cc2)c(C)c1 (stereo not drawn)	-14	nt	i	-4	-14	4	1	2
CCOc1ccc(/C=N/NC(=O)c2ccccc2O)cc1CN1CC2CC(C1)c1cccc(=O)n1C2 (stereo not drawn)	-3	nt	nt	nt	8	-3	1	nt
Cc1ccc2oc(=O)c3cnn(CC(=O)N4CCN(c5ccccn5)CC4)c3c2c1	-5	-13	i	-3	-1	1	1	1
COC(=O)c1cccc(NC(=S)NCCC2=CCCCC2)c1	-27	nt	i	-6	1	1	-7	3
COC(=O)[C@@H]1C[C@@]2(O)[C@H](O)[C@H](O)[C@H](O)C[C@H]2N1Cc1ccc(C(F)(F)F)cc1	2	-24	i	12	-1	-1	3	11
CCN(CC)CCNC(=O)c1ccc(NC(=O)c2c(C)nn(-c3ccc(F)cc3)c2Cl)cc1	-19	5	i	0	nt	6	5	2
O=C(CSc1nncn1-c1cccnc1)Nc1cccc([N+](=O)[O-])c1	-13	4	i	3	8	1	1	0
CCC(CO)Oc1cc(NC(=O)c2cccc(Cl)c2)c2ncn(C(C)C)c2c1 (stereo not drawn)	-5&-12	-5	nt	nt	-6	-1	-1	nt
COC(=O)c1c(-c2ccccc2)noc1-c1ccccc1	-11	-7	i	nt	3	-3	-3	nt
CC(C)CC(=O)N1CCN(Cc2ccccc2Cl)CC1	0	9	i	16	-5	2	-2	18
CN(CC(=O)NNC(=O)Cc1ccccc1F)S(=O)(=O)c1ccc(Cl)cc1	-16	-3	i	nt	4	8	1	nt
CC(=O)N1CCCc2cc(S(=O)(=O)N(C)CCC#N)ccc21	-21	nt	i	4	-13	3	0	-2
CCOc1ccc(C(=O)C(CN2CCOCC2)c2ccccc2)cc1 (stereo not drawn)	-6	-73	i	7	58	-7	-12	-1
COc1cccc(CC2(CO)CCCN(Cc3ccc(-c4ccco4)cc3)C2)c1 (stereo not drawn)	nt	16	i	-17	-5	-11	2	-11
COc1ccc(CCN(C)C(=O)Cc2ccc(-c3ccccc3)cc2)cc1OC	0	11	nt	4	7	-2	-30	3
COc1ccc2nc(/N=C\N(C)C)sc2c1	-22	i	nt	3	-6	5	-1	2
CCCCNc1ccc(S(N)(=O)=O)cc1[N+](=O)[O-]	nt	nt	i	-8	-4	nt	nt	-9
CCC1CCCCN1C(=O)CSc1nnc(N)s1 (stereo not drawn)	nt	-16	nt	nt	-13	2	3	nt
COC(=O)C(C(=O)OC)C(C[N+](=O)[O-])c1ccc(OC)cc1 (stereo not drawn)	nt	-56	i	3	nt	2	1	-10

(continued)
SMILES	UUG fidelity	HIV Env fusion	Rce1 inh	PABP polyA inh	CSC inhib	MT1-MMP act inh	MT1-MMP act inh RFP	eIF4H inh	others
CN(C)S(=O)(=O)c1ccc(C(=O)Nc2cc3c(cc2C(=O)O)OCCCO3)cc1	-14	-2	nt	16	-3	1	4	3
O=C1[C@@H]2Cc3c([nH]c4ccccc34)CN2C(=O)CN1CCCO	6	-9	i	1	-7	4	3	-6
Cc1nn(-c2ccccc2)c(N2CCCC2)c1C=O	-2	19	i	-12	-13	-9	-2	-15
O=C1Nc2ccc(Br)cc2C1=Nc1ccc(-c2nnc3n2CCCCC3)cc1	nt	nt	i	-9	8	nt	nt	-10
Cc1ccc(S(=O)(=O)NCCc2ccncc2)cc1[N+](=O)[O-]	-10	0	i	-2	-10	-2	2	5
COCCn1nnnc1C(c1cc(OC)ccc1OC)N1CCc2ccccc2C1 (stereo not drawn)	7	nt	i	12	-12	-8	-2	4
C=C(C)C(=O)Nc1cccc(C2=NOC3(C2)C[C@@H](C(N)=O)N(C(=O)CC(c2ccccc2)c2ccccc2)C3)c1 (stereo partly drawn)	-1	-45	i	52*	-15	2	-1	90*
COc1ccc(/C=C2\SC(=S)N(CC(=O)OCC(=O)Nc3ccc(C)cc3Cl)C2=O)cc1	-17	2	i	-4	0	2	3	-3
O=C(Nc1nnc(-c2ccccc2)o1)c1cc(-c2cccs2)nc2ccccc12	-29	3	i	73	?	-3	1	9	eIF4H inh retest=3;PABP polyA inh retest=-12
Cc1ccsc1/C=C(\C#N)C(=O)NCCCN1CCOCC1	nt	1	i	20	-14	-6	-3	-5
COCC(=O)N(C)C[C@@H]1Oc2cc(-c3ccc(F)cc3)ccc2S(=O)(=O)N([C@H](C)CO)C[C@H]1C	21&-4&-2	6	nt	nt	nt	1	1	nt
Cc1c(C)c(C)c(S(=O)(=O)N2CCC3(CC2)OCCO3)c(C)c1C	15	-4	i	3	-1	0	0	0
O=C(C1=C(O)C(=O)N(CCc2ccccc2)C1c1cccs1)c1ccco1 (stereo not drawn)	nt	-15	i	0	1	-5	-5	13
CC(C)n1nnc2c(=O)oc3ccccc3c21	nt	23	i	-1	-5	0	1	-5
CCCn1cc(CN2CCC(n3nccc3NC(=O)c3ccc4c(c3)OCO4)CC2)c(C)n1	-14	-21	i	-2	nt	2	3	-2

Screening results (PubChem)
